Source: PubChem
GLA inh pH 4.5: blocks human alpha-galactosidase A at pH 4.5 | activity change, negative = inhibition, % at 105 µM | P06280 | 230,000 tested, under 10 active | purified enzyme, 4-MU-alpha-Gal fluorescence, pH 4.5; inconclusive = small, poorly fitted or top-dose-only inhibition, or a rising curve; inactive = flat fitted curve, though single readings scatter; no compound was filed as active;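 further: 0% = full activity with enzyme and -100% = basal without enzyme; dose as in the result columns while the protocol names 77 µM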
Target sequence (P06280 whole entry, looked up): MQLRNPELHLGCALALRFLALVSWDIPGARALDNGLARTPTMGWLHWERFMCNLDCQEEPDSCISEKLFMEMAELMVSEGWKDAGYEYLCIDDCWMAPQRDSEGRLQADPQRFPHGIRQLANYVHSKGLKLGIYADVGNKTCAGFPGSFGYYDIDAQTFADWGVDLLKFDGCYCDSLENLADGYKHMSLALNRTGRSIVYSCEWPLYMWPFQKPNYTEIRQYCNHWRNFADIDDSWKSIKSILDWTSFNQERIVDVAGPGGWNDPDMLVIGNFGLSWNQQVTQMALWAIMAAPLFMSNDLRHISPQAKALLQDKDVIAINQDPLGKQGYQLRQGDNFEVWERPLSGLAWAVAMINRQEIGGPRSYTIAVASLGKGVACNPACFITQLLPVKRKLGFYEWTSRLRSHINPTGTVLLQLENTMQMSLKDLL
Rango-impB inh: inhibitors of Rango-importin beta complex formation; Rango CFP/YFP FRET sensor + importin beta, 45 min; Potency, µM (top dose mostly 92.2 µM), for inactives: at the highest dose inhibition of complex formation; AID 540263; 340,000 tested, 0.031% active; active = rising FRET ratio curve, often small or poorly fitted; inconclusive = mostly compound fluorescence or quenching in the first reads; inactive = flat curves in all reads;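 further: potency means the concentration at half of the fitted maximal effect; 0% = DMSO wells and 100% = buffer wells lacking importin beta; nearly all actives have a fitted effect of over 15% in size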
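FRET biosensor Rango (snurportin 1 IBB between N-terminal EYFP and C-terminal Cerulean), 50 nM in PBS/1 mM DTT/0.02% Tween-20/0.1% BSA, preincubated 5 min RT with compound; 0.125 microM importin beta added, 45 min RT, CFP/YFP FRET ratio read.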
Rango release inh: inhibition of RanGTP-driven Rango-importin beta dissociation | Potency, µM (doses to about 46.1 µM), inactives show at the highest dose activity change, negative = inhibition | Biochemical FRET Rango-importin beta, RanGTP-induced dissociation | AID 540253 | 340,000 tested, 0.071% active; active means falling FRET ratio curve, often poorly fitted, with flat reads before Ran was added; inconclusive means other falling curves, or compound fluorescence or quenching; inactive means flat or rising ratio curve;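 further: potency means the concentration at half of the fitted maximal effect; % of control where 0% means no effect; nearly all actives have a fitted effect of over 45% in size; -100% = wells without RanGTP and RCC1; the record marks most hits as doubtful in a second field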
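Rango (0.1 uM)–importin beta (0.25 uM) complex; RanGTP-RCC1 trigger; 45 min RT; CFP/YFP FRET read.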
miR-21 FLuc: miR-21 reporter, rising signal | Potency, µM (doses to about 38.3 µM), for inactives: at the top dose reporter change, positive = more light | HeLa miR-21 FLuc reporter, luciferase, 48 h | 340,000 tested, under 10 active | AID 2288; active = well fitted rising curve with a large enough effect; inconclusive = small, poorly fitted or top-dose-only effect; inactive = no such curve, though single readings can be large or run the other way;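 further: % of control where 0% means no effect; miR-21 action dims this reporter so a rising signal means less miR-21 action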
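HeLa miR-21-FLuc reporter line, endogenous miR-21; 2000 cells/well in DMEM/10% FBS; compound titration up to ~40uM final, 48 h, 37 degree Celsius; luciferase detection reagent, 15 min lysis, CCD luminescence.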
The depositor's hits bear a star; u = inconclusive; x = no result given. These rows are one share of the data; the hit share may differ from the screen's.

SMILES	GLA inh pH 4.5	Rango-impB inh	Rango release inh	miR-21 FLuc
Cc1cc(C)n(CCCO)c(=O)c1C#N	-2.0	u	2.1%	-0.4%
CCN(CC)S(=O)(=O)c1ccc(N2CCOCC2)c(NC(=O)CCC2CCCCC2)c1	2.7	-6.0%	15.5%	-4.6%
COc1ccc(O)c(/C=C(\C#N)C(=O)Nc2ccccn2)c1	x	u	u	-26.5%
Cc1ccc(NS(=O)(=O)c2ccc3c(c2)oc(=O)n3C)c(C)c1	x	0.1%	-10.3%	-0.9%
O=C(O)C1SCCN1S(=O)(=O)c1ccc(N=NN2CCOCC2)cc1 (configuration not stated)	-4.2	2.4%	2.8%	-2.6%
COc1ccc(/C=N/n2cncn2)cc1Cn1cc([N+](=O)[O-])cn1	-5.6	-2.0%	-3.0%	4.1%
O=C(CN(C(=O)CCC(=O)Nc1nccs1)c1ccc(F)cc1)NCc1ccc2c(c1)OCO2	x	-2.1%	-0.4%	-0.1%
COc1ccc(NC(=O)C2CCCN(S(=O)(=O)c3cccc4nonc34)C2)cc1OC (configuration not stated)	0.4	0.8%	-1.5%	-4.1%
CC(C)CCNC(=O)C1(O)c2ccccc2NC(=O)N1c1ccc(Cl)cc1 (configuration not stated)	x	-3.7%	24.3%	-20.1%
CC(C)Oc1ccc(C(CC(=O)O)NC(=O)C(Sc2ccccc2)c2ccccc2)cc1 (configuration not stated)	0.6	5.0%	-7.3%	-6.6%
COc1ccccc1-n1c(SCC(=O)Nc2ccc(NC(C)=O)cc2)nc2c([nH]c3ccccc32)c1=O	x	1.0%	1.1%	8.4%
CC(C)c1nc2cc(C(=O)N(C)Cc3ccc(F)cc3)ccc2o1	x	-0.5%	1.7%	-15.4%
COC(=O)C1=C(N)Oc2cc(C)n(CCCn3ccnc3)c(=O)c2C1c1cccc(Cl)c1 (configuration not stated)	-12.3	-4.3%	-8.8%	-3.8%
COc1ccc(N(C)S(=O)(=O)c2cccc(C(=O)NC3CCCCC3C)c2)cc1 (configuration not stated)	3.3	0.0%	15.4%	-0.2%
O=C(NCc1ccccn1)C1CCN(S(=O)(=O)c2cnc[nH]2)CC1	-7.5	-1.1%	-13.5%	-3.5%
CC(C)C(=O)NC(CC(=O)O)c1ccccc1 (configuration not stated)	1.9	-0.3%	-12.9%	2.2%
CC1CC1C(=O)N(C)CC(=O)Nc1cccc(F)c1 (configuration not stated)	x	-1.0%	4.8%	x
c1ccc(-c2nnc3sc(-c4cc5ccccc5o4)nn23)cc1	-5.6	5.6%	6.7%	-4.1%
CN1CCN(c2ccc(NC(=O)c3ccccc3)cc2)CC1	x	-6.6%	1.9%	-22.2%
Cc1ccc(C(=O)O/N=C2/CC3CCC2(C)[C@@]3(C)CBr)cc1 (some centres not stated)	-7.1	2.1%	4.5%	-3.2%
COc1cc(N=C(N)N=C(N)N)cc(OC)c1	6.3	-11.0%	11.1%	0.8%
NS(=O)(=O)c1ccc(NC(=O)C(=O)NCCC(=O)O)cc1	0.3	0.4%	3.8%	0.4%
COc1ccc(OC)c(S(=O)(=O)Nc2ccc(Oc3ccccc3)cc2)c1	-8.1	-3.3%	-8.8%	4.9%
Cc1cc(C(=O)NC2CCCc3c2cnn3-c2ccc(C)c(C)c2)nc(C)n1 (configuration not stated)	x	-2.1%	-7.9%	5.0%
NC(=O)CSc1nnc(-c2ccncc2)n1CCc1ccccc1	4.0	0.3%	1.3%	-2.3%

Further entries
SMILES	GLA inh pH 4.5	Rango-impB inh	Rango release inh	miR-21 FLuc
Cc1ccc(CSCC(=O)NCc2cccnc2)cc1	2.6	-1.4%	-0.1%	-8.8%
COc1cccc2cc(-c3ccccc3)c(=O)oc12	x	1.0%	u	-70.7%
O=C(Nc1ccc2c(c1)OCCO2)C1CCCN1S(=O)(=O)c1ccc(Cl)cc1 (configuration not stated)	-8.6	9.7%	-10.0%	0.6%
COc1cccc2cc(S(=O)(=O)c3ccccc3)c(=Nc3ccc4c(c3)OCCO4)oc12	-8.0	-3.8%	3.3%	-2.6%
O=c1cc(C(F)(F)F)nc(-c2cccnc2)[nH]1	13.1	-5.8%	18.6%	-1.4%
COc1ccc(OC)c(NC(=O)CSc2nc3ccccc3c(=O)n2CC2CCCO2)c1 (configuration not stated)	x	-2.1%	2.3%	-26.8%
COc1cc2c(cc1NC(=O)Cc1ccc(C)cc1)oc1ccccc12	-9.4	1.9%	7.4%	-62.2%
Cc1ccc2[nH]c3c(c2c1)CCC3=O	-2.1	1.0%	13.6%	-14.5%
O=C(NCc1ccc2c(c1)OCO2)C1CC(c2ccc(Cl)cc2)=NO1 (configuration not stated)	-3.2	-1.2%	0.9%	-2.3%
O=C(Nc1ccc(NC(=O)c2ccc(Cl)cc2Cl)cc1)c1cccs1	x	0.2%	0.7%	-12.1%
Cc1ccc(C(=O)N(CC(=O)NC2CCCCC2)c2ccccc2F)s1	3.3	-1.0%	6.5%	-1.7%
COc1cc2c(cc1NC(=O)CCC(=O)O)oc1ccccc12	x	7.5%	9.6%	-9.4%
COc1ccc(OC)c(C2C(C#N)=C(N)Oc3cc(C)[nH]c(=O)c32)c1 (configuration not stated)	2.6	-3.6%	16.9%	-0.1%
O=C(c1ccc(S(=O)(=O)N2CCCCCC2)cc1)N(c1ccccn1)C1CCCCC1	-2.3	0.1%	25.8%	-2.9%
COc1ccc(C2(C)NC(=O)N(CC(=O)Nc3ccc4c(c3)OCO4)C2=O)cc1OC (configuration not stated)	9.8	0.7%	5.7%	-12.7%
COc1ccc2c(-c3cccnc3)cc(=O)[nH]c2c1	-6.8	3.3%	4.5%	-3.1%
CCCCN(CCCC)CCNC(=O)CN1C(=O)COc2ccc(S(=O)(=O)N3CCC(C)CC3)cc21	x	-3.1%	-12.3%	-2.2%
O=C(CNC(=S)NC(=O)c1ccco1)c1ccccc1	-8.9	-2.1%	1.7%	-36.7%
CCC(C)(C)n1nnnc1C(c1cccnc1)N1CCN(c2cccc(C(F)(F)F)c2)CC1 (configuration not stated)	-0.9	-4.2%	0.7%	4.5%
CC(=O)N1CCN(c2nc3ccc([N+](=O)[O-])cc3s2)CC1	x	0.8%	6.7%	-14.3%
Cc1nnc(SCCn2c(Br)nc3c2c(=O)[nH]c(=O)n3C)s1	0.3	0.6%	5.9%	-8.4%
O=C(CC1C(=O)NCCN1C/C=C/c1ccccc1)NCCc1ccncc1 (configuration not stated)	-1.2	-2.1%	-7.2%	-0.9%
O=C(O)CC1c2ccccc2CCN1S(=O)(=O)c1cccs1 (configuration not stated)	x	0.0%	7.4%	x
Cc1cccc(NC(=O)NNC(=O)c2cc(-c3ccccc3Cl)nc3ccccc23)c1	-3.5	4.4%	-1.3%	11.9%
NC1=NC(=O)/C(=C/c2cccc(-c3ccc(S(N)(=O)=O)cc3)c2)S1	x	-3.7%	-16.2%	-2.7%

Carrying on:
SMILES	GLA inh pH 4.5	Rango-impB inh	Rango release inh	miR-21 FLuc
C=C1C(C(=O)Nc2ccc(OCC)cc2)C1C(=O)Nc1ccc(OCC)cc1 (configuration not stated)	-0.8	-3.1%	-1.0%	-6.7%
COC(=O)c1c(N)n(-c2ccc(NC(C)=O)cc2)c2nc3ccccc3nc12	u	u	u	0.1%
CC12COC3(C(=O)Nc4ccc([N+](=O)[O-])cc4)CC1CCC32C (configuration not stated)	4.5	-0.9%	17.8%	-8.9%
COc1cc(C(=O)OCC(=O)NC2CC2)ccc1OCCC(C)C	x	-0.2%	7.3%	x
CC(=O)CCn1c(=O)n(CCC(C)=O)c(=O)n(CCC(C)=O)c1=O	7.1	2.3%	-12.7%	-4.6%
CCNC(=O)CCn1nc(-c2ccc(Cl)cc2)c2ccccc2c1=O	-4.3	2.7%	24.2%	9.0%
Cc1ccsc1C(=O)NNC(=O)COc1ccc(Br)cc1	x	-2.7%	-11.5%	x
Cc1ccc(Nc2nc(N)nc(COC(=O)c3ccc(Br)o3)n2)cc1	x	4.7%	6.6%	x
CC1CCCC(C)N1S(=O)(=O)c1ccc(NC(=O)CCN2C(=O)C3CC=CCC3C2=O)cc1 (configuration not stated)	x	-1.8%	-8.3%	x
CCOC(=O)[C@H](CCc1ccccc1)N[C@@H](C)C(=O)N1C(C(=O)O)C[C@@H]2CCC[C@@H]21 (some centres not stated)	x	-1.4%	0.5%	x
O=C(CSc1ncnc2c1sc1ccccc12)Nc1ccc(Br)cc1	-3.2	5.7%	-19.8%	-13.7%
S=C(NCc1cccs1)Nc1cccc(Cl)c1Cl	2.4	-0.7%	2.3%	-4.8%
C/C=C/c1ccc(OCCCCOc2ccc(OC)cc2)c(OC)c1	-7.9	-2.3%	-19.7%	-4.9%
Cc1noc(C)c1NC(=O)N(C)C[C@H]1Oc2ccc(NS(=O)(=O)c3ccc(F)cc3)cc2C(=O)N([C@H](C)CO)C[C@@H]1C	x	1.8%	17.8%	x
Cc1ncoc1C(=O)NC1CC(C)(C)Cc2c1cnn2-c1ccccc1 (configuration not stated)	x	-2.4%	0.4%	-2.8%
O=C(Nc1ccc(N2CCCCCC2)cc1)c1cccc(S(=O)(=O)N2CCOCC2)c1	x	0.0%	0.5%	x
O=C(CSc1ccc(-c2cccs2)nn1)N1CCCCC1	1.7	3.1%	1.0%	-36.4%
CC(=O)Cc1nsc(NC(=O)c2ccc(-c3ccc(Cl)c(Cl)c3)o2)n1	-6.6	0.7%	-2.8%	9.1%
CCOc1ccccc1NC(=O)/C(C#N)=C/c1c(C)nn(-c2ccc(F)cc2)c1Cl	1.5	-0.9%	2.2%	0.2%
CCC(C)[C@H](NC(=O)NCc1ccco1)C(=O)O (some centres not stated)	2.3	-1.8%	-8.4%	-0.5%
O=C(COC(=O)c1cc(Br)ccc1Cl)NC1CCCC1	-1.0	-0.5%	6.0%	-0.5%
CCN(c1ccccc1)S(=O)(=O)c1cc(C(=O)O)ccc1C	13.3	-0.2%	5.7%	-4.4%
CCOC(=O)C1CCCN(C(=S)Nc2cccc(Cl)c2)C1 (configuration not stated)	3.3	4.4%	-16.3%	10.2%
CCOc1cc(C2Nc3ccccc3NC3=C2C(=O)CC(C)(C)C3)ccc1O (configuration not stated)	x	u	u	-10.0%
O=C(c1cccs1)N1CCN(C(=O)c2cccs2)C1=S	x	0.2%	9.5%	x

Overlap with the part before: 2 compounds, followed by the next part.
SMILES	GLA inh pH 4.5	Rango-impB inh	Rango release inh	miR-21 FLuc
CCOc1cc(C2Nc3ccccc3NC3=C2C(=O)CC(C)(C)C3)ccc1O (configuration not stated)	x	u	u	-10.0%
O=C(c1cccs1)N1CCN(C(=O)c2cccs2)C1=S	x	0.2%	9.5%	x
CN(CC(=O)NCCc1ccc(S(N)(=O)=O)cc1)CC(=O)Nc1ccc(Cl)c(C(F)(F)F)c1	x	0.3%	5.5%	x
O=C(CCC(=O)N1CCOc2ccccc21)Nc1ccccc1Br	x	0.4%	-2.2%	0.3%
O=C(CSc1ccc(S(=O)(=O)N2CCOCC2)cn1)Nc1ccc(OC(F)F)cc1	x	-3.2%	28.7%	x
COc1cccc(N2CC(C(=O)Nc3nnc(SCC(=O)N4CCOCC4)s3)CC2=O)c1 (configuration not stated)	x	-2.3%	-22.6%	0.3%
COc1ccc(S(=O)(=O)N2CCNC(=O)C2)cc1Br	4.1	0.3%	-9.1%	3.3%
Cc1cc2oc(=O)cc(CN3CCN(Cc4ccccc4)CC3)c2cc1O	x	0.1%	-6.1%	5.9%
Cn1c(-c2cccc([N+](=O)[O-])c2)cnc1NCc1ccc(C#N)cc1	6.7	2.8%	-0.4%	1.3%
CCOC(=O)c1[nH]c2ccccc2c1NC(=O)C(C)(C)C	3.5	2.8%	-5.1%	0.5%
CC(C)N(C(=O)Cn1cc(SCC(N)=O)c2ccccc21)C(C)C	0.3	1.5%	12.3%	3.4%
O=C(Cc1nc2ccccc2[nH]1)c1cccc([N+](=O)[O-])c1	-7.9	-4.3%	4.3%	-0.1%
Cc1cc(C)n2c(SCC#N)nnc2n1	3.1	-0.4%	-0.9%	1.7%
Cc1ccc(NC(=O)c2nccnc2C(=O)O)cc1C	0.2	-2.9%	63.7%	-0.7%
Nc1ccccc1C(=O)NC1CCCNC1=O (configuration not stated)	x	0.8%	-0.1%	x
C=COCCNC(=S)N1CCOCCOCCN(C(=S)NCCOC=C)CCOCCOCC1	-5.0	-3.3%	10.0%	-0.1%
Nc1ncnc2c(C3OC(CO)C(O)C3O)c[nH]c12 (configuration not stated)	x	0.0%	2.8%	x
